# High-throughput results deposited in PubChem by National Center for Advancing Translational Sciences (NCATS).
# Rango release inh: qHTS Assay for Inhibitors of RanGTP induced Rango (Ran-regulated importin-beta cargo) - Importin beta complex dissociation | Snurportin-1 (Homo sapiens) + GTP-binding nuclear protein Ran (Homo sapiens) + Importin … | Biochemical FRET Rango-importin beta, RanGTP-induced dissociation | Potency, µM (highest dose often 46.1 µM), for inactives: at the highest dose activity change, negative = inhibition | 340,000 tested, 0.071% active; active means falling FRET ratio curve, often poorly fitted, with flat reads before Ran was added; inconclusive means other falling curves, or compound fluorescence or quenching; inactive means flat or rising ratio curve;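 further: potency means the concentration at half of the fitted maximal effect; % of control where 0% means no effect; nearly all actives have a fitted effect of over 45% in size; -100% = wells without RanGTP and RCC1; the record marks most hits as doubtful in a second field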
#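 Rango FRET biosensor (snurportin-1 IBB flanked by N-terminal EYFP and C-terminal CFP10) at 0.1 uM, with 0.25 uM importin beta in PBS, 1mM DTT, 0.02% Tween-20, 0.1% BSA. 0.6 uM Ran, 2mM GTP and 0.2 uM RCC1 were then added for 45 min at room temperature. Inhibition read as loss of FRET rise.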
# GLA inh pH 4.5: qHTS Assay for Inhibitors of Human alpha-Galactosidase at pH 4.5; Alpha-galactosidase A (Homo sapiens), P06280; purified enzyme, 4-MU-alpha-Gal fluorescence, pH 4.5; activity change, negative = inhibition, % at 105 µM; 230,000 tested, under 10 active; AID 1467, 2008; inconclusive = small, poorly fitted or top-dose-only inhibition, or a rising curve; inactive = flat fitted curve, though single readings scatter; no compound was filed as active;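 further: 0% = full activity with enzyme and -100% = basal without enzyme; dose as in the result columns while the protocol names 77 µM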
# miR-21 reporter: qHTS Assay for Modulators of miRNAs and/orActivators of miR-21; HeLa miR-21 FLuc reporter, luciferase, 48 h; Potency, µM (doses to about 38.3 µM), inactives show at the highest dose reporter change, positive = more light; 340,000 tested, under 10 active; AID 2288, 2010; active = well fitted rising curve with a large enough effect; inconclusive = small, poorly fitted or top-dose-only effect; inactive = no such curve, though single readings can be large or run the other way;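 further: % of control where 0% means no effect; miR-21 action dims this reporter so a rising signal means less miR-21 action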
#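 HeLa cells endogenously expressing miR-21, stably carrying CMV-driven firefly luciferase with a downstream miR-21 binding site, 2000 cells/well. Titrations up to approximately 40 uM, 48 hours; luciferase luminescence read.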
# Rango complex inh: qHTS Assay for Inhibitors of Rango (Ran-regulated importin-beta cargo) - Importin beta complex formation; 340,000 tested, 0.031% active; Rango CFP/YFP FRET sensor + importin beta, 45 min; Potency, µM (series often up to 92.2 µM), for inactives: at the top dose inhibition of complex formation; Importin subunit beta-1 (Homo sapiens), Q14974; active = rising FRET ratio curve, often small or poorly fitted; inconclusive = mostly compound fluorescence or quenching in the first reads; inactive = flat curves in all reads;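 further: potency means the concentration at half of the fitted maximal effect; 0% = DMSO wells and 100% = buffer wells lacking importin beta; nearly all actives have a fitted effect of over 15% in size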
# Target sequence (Q14974 whole entry, looked up): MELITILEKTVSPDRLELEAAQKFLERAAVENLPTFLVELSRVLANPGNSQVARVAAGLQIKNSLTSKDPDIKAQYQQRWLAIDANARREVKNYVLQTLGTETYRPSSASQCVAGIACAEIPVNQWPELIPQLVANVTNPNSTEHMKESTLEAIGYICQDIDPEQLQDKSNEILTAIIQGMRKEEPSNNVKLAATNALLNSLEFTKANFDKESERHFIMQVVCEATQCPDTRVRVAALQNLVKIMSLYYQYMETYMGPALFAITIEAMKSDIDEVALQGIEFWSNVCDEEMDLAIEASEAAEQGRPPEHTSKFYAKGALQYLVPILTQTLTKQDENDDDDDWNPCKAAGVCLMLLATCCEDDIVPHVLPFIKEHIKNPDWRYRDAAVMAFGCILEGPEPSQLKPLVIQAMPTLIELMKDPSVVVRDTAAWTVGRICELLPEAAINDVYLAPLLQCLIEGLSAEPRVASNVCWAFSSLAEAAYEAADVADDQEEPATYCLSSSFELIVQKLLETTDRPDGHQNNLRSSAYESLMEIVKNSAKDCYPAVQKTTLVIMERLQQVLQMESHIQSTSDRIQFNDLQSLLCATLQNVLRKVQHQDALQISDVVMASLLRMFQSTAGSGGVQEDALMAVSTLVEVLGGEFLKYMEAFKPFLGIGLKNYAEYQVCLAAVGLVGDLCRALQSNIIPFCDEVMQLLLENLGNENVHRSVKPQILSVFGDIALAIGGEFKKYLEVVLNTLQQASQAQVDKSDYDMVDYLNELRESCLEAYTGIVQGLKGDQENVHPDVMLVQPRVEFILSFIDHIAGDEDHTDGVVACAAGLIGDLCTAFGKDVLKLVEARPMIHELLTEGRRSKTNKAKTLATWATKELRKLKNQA
#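 Inhibition scored from the CFP 486 nm/YFP 530 nm FRET ratio 45 min after adding 0.125 microM importin beta to 50 nM Rango biosensor preincubated 5 min with compound (room temperature, PBS with DTT, Tween-20, BSA). No-importin wells as positive control.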
# * hit, by the source's call; ? = inconclusive; / = not tested or not shown; & = joins results of further samples; [ ] = remark or other dose. These rows are one share of the data. The share of hits here may be higher or lower than overall.
SMILES,Rango release inh,GLA inh pH 4.5,miR-21 reporter,Rango complex inh
Cc1cc(N2CCCC2)c(F)cc1/C=C\[N+](=O)[O-],-9%,5,-6%,1.0%
Cc1ccc(C2=NNC3(CCOC(C)(C)C3)S2)cc1 (stereo not given),-5%,-10,-60%,-0.3%
O=C(CCS(=O)(=O)c1ccc(Br)cc1)N1CCN(c2ccc(Cl)cc2)CC1,11%,-3,0%,-3.1%
O=C(COC(=O)c1cccc(S(=O)(=O)NCc2ccccc2)c1)NC1CC1,33%,/,/,-0.4%
NC(=O)COc1ccc(NS(=O)(=O)Cc2ccccc2)cc1,0%,/,-7%,-2.9%
COc1ccc2ccn(S(=O)(=O)c3ccccc3)c2c1,?,/,-1%,1.5%
CCC(C(=O)NC1CCCC1)N(C(=O)c1snc(C(N)=O)c1N)c1ccc(OC)cc1 (stereo not given),?,/,0%,-0.5%
CCCCn1c(N)c(N(CC(C)C)C(=O)C2CCCN(C(=O)c3ccc(Cl)cc3)C2)c(=O)[nH]c1=O (stereo not given),-1%,/,/,-2.8%
CCc1cc(C(=O)Nc2cc(S(=O)(=O)N(C)C)ccc2C)sc1C,0%,-3,6%,-7.4%
COc1ccc(Cn2ccnc2SCC(=O)Nc2ccccc2OC)cc1,-4%,/,-9%,-2.5%
Cc1cccc(N2CCN(C(=S)c3ccccc3)CC2)c1,17%,/,-12%,-2.2%
Oc1ccc(C2=NNC(=NCc3ccc4c(c3)OCO4)SC2)c(O)c1,-2%,-7,-17%,?
Cc1ccc(C)c(N(CC(=O)NCc2ccccc2)C(=O)c2csnn2)c1,-7%,/,0%,-0.3%
COc1cccc(NS(=O)(=O)c2ccc3[nH]cc(C(=O)NCCC(C)C)c(=O)c3c2)c1,11%,-9,20%,3.1%
Cc1ccc(C)c(S(=O)(=O)N2CCN(C(=O)CCNS(=O)(=O)c3ccc(C)c(C)c3)CC2)c1,22%,/,/,-0.1%
O=C(NC(=S)Nc1ccc(S(=O)(=O)Nc2ccccc2)cc1)C1CC1,-5%,-16,1%,-1.7%
CC(NC(=O)Cn1ncc(Cl)c(Cl)c1=O)C12CC3CC(CC(C3)C1)C2 (stereo not given),10%,6,?,-1.6%
O=c1c2cc(NC(=S)NC3CCCCC3)ccc2nc2n1CCCCC2,-3%,-27,2%,0.0%
O=C(c1cc2ccccc2c(=O)o1)N1CCCCCC1,-15%,7,-18%,-1.4%
CC(C)c1ccc(OCc2nc(-c3ccccn3)no2)c(Br)c1,-1%,-11,-40%,7.0%
NC(=O)Nn1c(CCC(=O)O)ccc1-c1ccc(Br)cc1,-1%,-4,-5%,?
Cc1cccc(NC(=O)CSc2nc3nc4c(cc3c(=O)n2-c2ccccc2)CCCC4)c1,-17%,3,7%,?
Cc1ccc(-c2csc(NC(=O)c3cccc(N4C(=O)CCC4=O)c3)n2)o1,1%,6,15%,-0.7%
CCOC(=O)c1ccc(S(=O)(=O)N2CCN(c3ccccn3)CC2)cc1,0%,/,2%,-0.1%
Cc1ccc(C)c(Cn2c(=O)c3c(nc4n3CCN4Cc3ccco3)n(C)c2=O)c1,-12%,-17,0%,-0.2%
O=C(NC1CCCCCC1)C1CCN(S(=O)(=O)c2cccc3cccnc23)CC1,11%,2,-9%,1.2%
COc1ccccc1CN(CC(=O)NCc1ccco1)C(=O)CNS(=O)(=O)c1ccc(C)cc1,-7%,1,1%,2.6%
COc1cccc(CN(C)C(=O)c2ccc3c(=O)n4c(nc3c2)CCC4)c1OC,5%,/,-34%,-4.6%
O=C(c1ccccc1)N1N=C(C(F)(F)F)CC1(O)c1ccc(F)cc1 (stereo not given),5%,/,-25%,-0.8%
CCc1cc(=O)oc2cc(C)cc(OCC(=O)NCc3ccccn3)c12,7%,/,-1%,-1.5%
COc1ccc(-c2coc3cc(OC)cc(O)c3c2=O)cc1,-14%,8,-51%,-4.5%
Cc1noc(/C=C/c2ccco2)c1S(=O)(=O)N1CCC(C(=O)Nc2ccc(Cl)cn2)CC1,-6%,-3,28%,-5.1%
O=C(Nc1ccc(-c2noc(-c3cccs3)n2)cc1)c1cccnc1,-7%,-4,14%,0.8%
O=C(O)c1cccc(NN=C2c3ccccc3-c3ccccc32)c1,?,?,-13%,-3.9%
O=P(CCC(F)(F)F)(CCC(F)(F)F)CCC(F)(F)F,13%,-11,-2%,-0.9%
Cc1ccccc1CC1(CO)CCCN(C(=O)Cc2c(F)ccc(F)c2F)C1 (stereo not given),2%,/,2%,-0.1%
COc1cccc(NC(=O)c2ccccc2)c1,8%,/,/,-0.8%
Cn1nnnc1SCC(=O)Nc1c(Cl)cccc1Cl,-9%,-3,2%,-2.6%
O=C(C1=CC=CN2CCS(=O)(=O)N=C12)N1CCN(c2cccc(Cl)c2)CC1,-10%,/,/,3.7%
CC(C)c1c(C(=O)N/N=C/c2ccc(C(F)(F)F)cc2)nnn1-c1nonc1N,15%,/,-1%,-1.9%
O=[N+]([O-])c1cc(/C=N/N2CCCCC2)ccc1Cl,-11%,1,-47%,0.9%
O=C(CC1SC(N2CCCC2)=NC1=O)Nc1ccc(C(=O)NCCOc2ccccc2F)cc1 (stereo not given),10%,/,/,1.5%
COc1cccc(CC(NC(C)=O)C(=O)NC2CCN(c3c(Cc4ccccc4)c(C)nc4ncnn34)CC2)c1 (stereo not given),1%,4,-25%,-1.0%
Cc1ccc(CNC(=O)CN2C(=O)NC(C)(c3cccc(Br)c3)C2=O)cc1 (stereo not given),4%,/,5%,-0.1%
Cn1c(NNC(=O)/C=C/c2ccc3c(c2)OCO3)cc(=O)n(C)c1=O,-16%,-9,0%,?
O=C(CO/N=C/c1ccc(OC(F)F)cc1)NC1CCCCCC1,2%,3,1%,4.3%
CCC(CC)C(=O)N(c1ccc(F)cc1)C1C=CS(=O)(=O)C1 (stereo not given),8%,3,-2%,0.3%
CC1CCCCN1C(=O)c1cc(Cl)ccc1[N+](=O)[O-] (stereo not given),2%,-2,0%,-1.7%
O=C(COC(=O)CSc1ccc(Br)cc1)NCc1ccco1,5%,/,/,-3.9%
O=C(COC(=O)/C=C/c1ccc(Br)o1)NC1CCCCC1,-23%,/,/,?
# The listing continues.
SMILES,Rango release inh,GLA inh pH 4.5,miR-21 reporter,Rango complex inh
O=C(O)c1nccnc1C(=O)Nc1ccc(Cl)cn1,1%,/,0%,0.5%
CSc1nc2ccc(S(=O)(=O)N3CCCCC3)cc2s1,2%,10,1%,3.4%
Cc1ccc(NC(=S)Nc2cc(C)on2)cc1,18%,-6,-52%,-1.1%
COc1ccccc1C(=O)NCC(=O)NCC1(N2CCCCC2)CCCCC1,17%,/,/,-0.1%
COc1ccc(-c2cc(C(F)(F)F)n3nc(N)nc3n2)cc1,?,?,-52%,?
C[C@H](CO)N1C[C@H](C)[C@@H](CN(C)C(=O)Nc2ccc3c(c2)OCO3)Oc2ccc(NS(=O)(=O)c3cn(C)cn3)cc2C1=O,-1%,/,/,-3.7%
Cc1ccc(-c2csc(=Nc3cccnc3)n2CCCN2CCCC2=O)cc1C,27%,2,-7%,-0.6%
CCCc1cnc(N2CCN(C(=S)NC)CC2)nc1,-3%,-9,-56%,-0.8%
CN1CCN(c2ccc(NC(=O)c3ccc(-c4ccc(Cl)cc4)o3)cc2)CC1,10%,/,29%,-4.1%
CCOc1ccc(CCNC(=O)c2ccc3c(=O)n4c(nc3c2)CCCCC4)cc1,12%,/,0%,1.5%
Nc1nnc(Cc2cccc(Br)c2)s1,-6%,-7,0%,2.2%
O=C(c1ccc(Br)s1)N1CCN(Cc2ccc3c(c2)OCO3)CC1,-2%,-7,-1%,4.9%
Cc1ccc(N(C(=O)CNC(=O)c2ccco2)C(C(=O)NC2CCCC2)c2cccnc2)cc1F (stereo not given),4%,/,-1%,-4.5%
Cc1nc(Nc2ccc(Cl)cc2)c2oc3ccccc3c2n1,11%,/,4%,-1.3%
Cc1ccccc1C(=NCCCN(C)C)c1ccccc1C,-16%,-13,-2%,1.7%
COc1ccc(Cl)cc1S(=O)(=O)n1ccnc1C(C)C,-12%,-2,-16%,-0.6%
O=C(O)CCn1ccc2cc(S(=O)(=O)N3CCCCCC3)ccc21,-11%,/,-4%&-2%,2.8%
Cn1c(=O)c2cc(S(=O)(=O)Nc3ccc4c(c3)OCO4)ccc2n(C)c1=O,-9%,-6,6%,-2.9%
COc1ccc2ccccc2c1CNCCCN1CCOCC1,3%,9,-3%,-2.5%
CCOC(=O)/C=C/[C@H]1CCc2cccc(C)c2O1,-21%,/,/,-0.1%
COc1cc(C2C(C#N)=C(N)OC3=C2C(=O)CCC3)cc2c1OCO2 (stereo not given),0%,/,-3%,-0.5%
CCc1cccc2c(C#N)cn(CC(=O)NCc3ccco3)c12,1%,0,7%,-2.8%
COc1ccc(NC(=O)C/C(C)=N/NC(=O)c2ccco2)c([N+](=O)[O-])c1,-6%,/,-50%,1.0%
CCCCNC(=O)CC1N=C2c3ccccc3N=C(SCC(=O)Nc3ccccc3OC)N2C1=O (stereo not given),-1%,-11,-3%,0.6%
O=C(O)c1ccc(CSC2CCCCC2)cc1,10%,/,-8%,-0.6%
CCN(C(=O)CN(C)Cc1cccc(Cl)c1Cl)c1c(N)n(Cc2ccccc2)c(=O)[nH]c1=O,21%,10,-1%,-0.3%
CC(=O)c1ccc(O)c(CC=C(C)C)c1O,3%,/,/,3.6%
C/C(Cl)=C/Cn1c(SCC(C)C)nc2c1c(=O)[nH]c(=O)n2C,5%,-5,2%,-2.1%
COCCCNC(=O)CN(c1ccc(OC)cc1)S(=O)(=O)c1ccc(NC(C)=O)cc1,-11%,-1,-1%,1.2%
O=S1(=O)N=C(N2CCCC2)c2ccccc21,-2%,/,-1%,-0.7%
Cc1ccc2nc(CCCc3nc4ccc(C)cc4[nH]3)[nH]c2c1,10%,/,0%,-0.1%
COc1ccc(S(=O)(=O)N2CCC(C(=O)NCCC(=O)NCc3ccccc3OC)CC2)cc1,10%,/,-2%,-4.8%
COc1cc(CN2CCC(n3nccc3NC(=O)C3CC3)CC2)cc(OC)c1,1%,/,-2%,0.1%
COc1ccc(CCNC(=O)CCS(=O)(=O)c2ccc(Br)cc2)cc1OC,-14%,11[21.1 µM],5%,2.3%
O=C(O)C1=C[C@@H](C2CC2)C[C@@H](OCc2ccc(CO)cc2)O1,-10%,-3,2%,-1.8%
Clc1ccc(-c2nc(-c3cc4cc(Cl)ccc4o3)cs2)cc1,-2%,-3,-3%,-0.3%
O=C(c1cccnc1)N1CCN(S(=O)(=O)c2ccc(F)cc2)CC1,6%,11,0%,1.0%
Fc1ccc(-n2c(CN3CCCCC3)n[nH]c2=S)cc1,1%,-5,0%,-2.3%
Cc1ccc(NCC(=O)Nc2cccc(F)c2)cc1S(=O)(=O)N1CCCCCC1,-2%,/,29%,0.8%
COc1ccc(C2C(C#N)=C(N)Oc3cc(C)[nH]c(=O)c32)c(OC)c1OC (stereo not given),0%,-2,10%,2.1%

# Quoted at random: 2 records from the list
SMILES,Rango release inh,GLA inh pH 4.5,miR-21 reporter,Rango complex inh
O=C(c1cccnc1)N1CCN(S(=O)(=O)c2ccc(F)cc2)CC1,6%,11,0%,1.0%
COc1ccc(C2C(C#N)=C(N)Oc3cc(C)[nH]c(=O)c32)c(OC)c1OC (stereo not given),0%,-2,10%,2.1%

# Continuation.
SMILES,Rango release inh,GLA inh pH 4.5,miR-21 reporter,Rango complex inh
N#Cc1cc(C(=O)c2ccccc2OCC(=O)Nc2ccccc2Cl)cn(C2CCCCC2)c1=O,4%,-7,-14%,-3.7%
O=C(COC(=O)c1cccc(-n2cnnn2)c1)c1ccc(Br)cc1,2%,/,/,-1.8%
Cn1cc(C2=C(c3ccc(Cl)cc3Cl)C(=O)NC2=O)c2ccccc21,?,2&-8,5%,?
Cc1cc(C)c(NC(=O)CCCn2c(=O)oc3ccccc32)c(C)c1,14%,/,/,1.1%
